# Bioassay records as filed in PubChem.
# Polio RdRp inh: poliovirus RNA polymerase inhibition; AID 588519; % elongation, % (compound at 16.7 µg/mL); poliovirus polymerase elongation, fluorescence polarization; stronger effect = lower value; 0.66% of 150,000 active; P03300; in the data active = % elongation below about 90%; note: some results filed as inactive read as strong as hits
# Target sequence (P03300 1749-2209 limits assumed): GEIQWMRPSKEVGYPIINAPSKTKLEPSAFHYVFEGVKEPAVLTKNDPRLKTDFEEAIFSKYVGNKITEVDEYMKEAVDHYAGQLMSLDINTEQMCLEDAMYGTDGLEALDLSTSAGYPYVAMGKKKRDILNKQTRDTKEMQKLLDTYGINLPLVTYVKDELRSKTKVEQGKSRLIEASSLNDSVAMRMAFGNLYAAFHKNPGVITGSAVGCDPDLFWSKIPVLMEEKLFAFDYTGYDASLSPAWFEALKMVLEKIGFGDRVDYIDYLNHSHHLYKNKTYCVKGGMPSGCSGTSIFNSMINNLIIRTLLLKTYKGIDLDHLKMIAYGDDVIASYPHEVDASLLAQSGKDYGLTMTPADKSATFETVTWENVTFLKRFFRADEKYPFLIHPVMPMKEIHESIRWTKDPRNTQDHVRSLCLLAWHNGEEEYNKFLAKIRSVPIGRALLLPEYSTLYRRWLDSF
# Polio RdRp inh intensity: second read-out of Polio RdRp inh, no call of its own (marks repeat the call); % elongation; measured here: total intensity read-out; formula for this scale not given here;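 total fluorescence in place of polarization; lower means less elongation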
# The depositor's hits bear a star.
# Each structure is followed by: Polio RdRp inh, Polio RdRp inh intensity
> CCn1c(=O)cc(OCC(=O)N(C)c2ccc(OC)cc2)c2ccccc21
 : 105, 108
> O=C(CSc1nccn1Cc1ccccc1)NCc1ccccc1Cl
 : 109, 118
> Cc1ccc2c(c1)N(CCC(=O)NCc1ccccc1Cl)C(=O)CO2
 : 102, 103
> COc1ccccc1NC(=O)c1oc2ccccc2c1NC(=O)c1ccc(S(=O)(=O)N(C)C)cc1
 : 106, 111
> CCOc1ccc(CCNC(=O)C(CC)n2nc(C)c3c(C)n(-c4ccccc4)nc3c2=O)cc1 (stereo not given)
 : 104, 107
> CCN(CC)C(=O)C1=C(C)Nc2nc3ccccc3n2C1c1ccc(Cl)cc1 (stereo not given)
 : 105, 110
> CCc1cccc2sc(N3CCN(C(=O)C4CC4)CC3)nc12
 : 108, 111
> COc1cc(Cl)c(C)cc1NC(=O)CC(c1ccc(F)cc1)N1Cc2ccccc2C1=O (stereo not given)
 : 110, 112
> Cc1nc(-c2ccccc2)sc1CCNC(=O)C(=O)Nc1ccc2c(c1)OCO2
 : 109, 99
> COCCNC(=O)Cn1nc(-c2ccc(C)cc2)c2ccccc2c1=O
 : 111, 112
> O=C(Nc1ccc(Cl)cc1)C1CCC(CNS(=O)(=O)c2ccc(Br)s2)CC1 (stereo not given)
 : 110, 110
> CCC1=Nc2cc(C(=O)NCc3ccccc3Cl)ccc2Sc2ccc(C)cc21
 : 107, 107
> CCC(=O)n1nc(-c2cccnc2)nc1NCc1ccc(F)cc1
 : 104, 107
> CCOC(=O)CSc1nc2ccc(NC(=O)c3ccc(F)cc3)cc2s1
 : 109, 116
> CC(C)C(=O)Nc1c(C(=O)N2CCN(c3ccccc3F)CC2)oc2ccccc12
 : 103, 103
> CCc1cccc(NC(=O)C2CCC(CNS(=O)(=O)c3ccc4c(c3)CCCC(=O)N4)CC2)c1 (stereo not given)
 : 107, 112
> Cc1ccccc1OCC(=O)Nc1ccc(S(=O)(=O)N(Cc2ccccc2)c2ccccc2)cc1
 : 105, 106
> Cc1ccc(NC(=O)c2cnc(SCC(=O)N3CCOCC3)n(C)c2=O)cc1
 : 111, 115
> Cc1cccc(CS(=O)(=O)Cc2ccc(C(=O)NC(C)c3ccccc3)o2)c1 (stereo not given)
 : 113, 108
> CC1CCN(C(=O)CSc2nnc(NC(=O)Nc3ccccc3)s2)CC1
 : 100, 102
> Cc1ccc(NC(=O)CSc2ccc(-c3sc(-c4ccccc4)nc3C)nn2)cc1F
 : 113, 103
> CC1=C(C(=O)NCc2cccc(Br)c2)C2(CCCCC2)OC1=O
 : 104, 111
> COc1cccc(C(=O)Nc2ccccc2-c2nc3ccccc3s2)c1
 : 109, 112
> COc1ccccc1NC(=O)C1=C(C)Nc2c(C(=O)Nc3ccc(F)cc3)cnn2C1c1cccc([N+](=O)[O-])c1 (stereo not given)
 : 105, 109
> CCc1c(C)nc2nc(-c3ccccc3)nn2c1NCc1ccc(C)cc1
 : 108, 106
> CCCN1C(=O)C2(c3ccccc31)c1c(oc3ccccc3c1=O)C(=O)N2CCO (stereo not given)
 : 108, 97
> COc1ccc(NC(=O)c2csnn2)cc1
 : 113, 105
> Cc1ccc(-n2nc3c(=O)n(CC(=O)NC(C)C)nc(C)c3c2C)cc1
 : 113, 111
> CCOc1ccc(Nc2oc(/C=C/c3ccc(F)cc3)nc2C#N)cc1
 : 107, 100
> O=[N+]([O-])c1cc(-c2nc(-c3ccccc3)no2)ccc1NC1CCCC1
 : 107, 102
> O=C(c1cc2c(=O)[nH]c3ccccc3c2s1)N1CCN(c2ccc(F)cc2)CC1
 : 108, 108
> Cc1ccc(-n2ncc3c(N4CCN(C)CC4)ncnc32)cc1C
 : 105, 109
> CCOC(=O)N1CCC(NC(=O)c2cnn(-c3ccc(OC)cc3)c2C2CCN(C(=O)OC(C)(C)C)CC2)CC1
 : 107, 100
> CCN(CCCNC(=O)c1nn(-c2ccc(OC)c(Cl)c2)c(=O)c2c1c1ccccc1n2C)c1cccc(C)c1
 : 104, 107
> COc1ccc(NC(=O)Cn2cc(S(=O)(=O)c3ccccc3)c(=O)c3cc4c(cc32)OCO4)cc1
 : 110, 109
> O=C(c1ccc2c(c1)N(Cc1ccccc1)C(=O)c1ccccc1S2(=O)=O)N1CCCC1
 : 104, 105
> CCS(=O)(=O)N1CCc2cc(C(=O)Nc3cc(C(F)(F)F)ccc3Cl)ccc21
 : 103, 109
> CCOC(=O)c1c(NC(=O)C(C)Sc2cn(CCNC(=O)c3ccccc3OC)c3ccccc23)sc2c1CCC2 (stereo not given)
 : 101, 105
> Cc1cccn2c(=O)c3cc(C(=O)NC(C)c4ccccc4)c(=N)n(CCCO)c3nc12 (stereo not given)
 : 107, 112
> Cn1nnnc1SCCCNCc1cc(Cl)ccc1OCc1ccc(F)cc1
 : 107, 107
> COc1ccc(C(=O)Nc2ccc3oc(-c4cccnc4)nc3c2)cc1OC
 : 105, 111
> CC(C)c1cnc2c(c1SCC(=O)c1ccccc1)c(=O)n(C)c(=O)n2C
 : 109, 108
> Cc1nc2nc(NC(=O)c3ccc(C(C)(C)C)cc3)[nH]n2c(=O)c1C
 : 100, 99
> Cn1c(SCc2ccc(F)cc2)nc2ccc(C(=O)NCc3cccc(Cl)c3)cc21
 : 108, 107
> Cc1oc2ncnc(N3CCOCC3)c2c1C(=O)N1CCN(c2cccc(C(F)(F)F)c2)CC1
 : 107, 113
> CC(C)c1ccc(NC(=O)CCn2c(=O)c3cccn3c3ccccc32)cc1
 : 112, 113
> Cc1ccc(NC(=O)C2CCCN(S(=O)(=O)c3ccc4c(c3)oc(=O)n4C)C2)cc1Cl (stereo not given)
 : 105, 108
> COc1ccc(C(c2c(O)c3ccccc3oc2=O)c2c(C)n(C)n(-c3ccccc3)c2=O)cc1 (stereo not given)
 : 105, 104
> CCOC(=O)C1=C(CN2CCC(C(=O)OCC)CC2)NC(=O)NC1c1ccc(Cl)cc1 (stereo not given)
 : 108, 104
> Cc1cccc(N2CCN(c3ccc4cc(S(=O)(=O)N5CCC(C)CC5)ccc4n3)CC2C)c1 (stereo not given)
 : 100, 96
> Cc1cccc(NC(=O)c2ccc(-n3c(C)nnc3C)cc2)c1
 : 112, 118
> CCC1CN(C(=O)N2CCC(C(=O)N3CCN(c4cc(C)ccc4C)CC3)CC2)c2ccccc2O1 (stereo not given)
 : 110, 110
> CCOc1ccc(S(=O)(=O)N(CC(=O)NCCc2ccc(OC)cc2)c2ccccc2)cc1
 : 104, 104
> CCOC(=O)c1c(C)n(-c2ccccc2)c2ccc(OC(=O)c3ccccc3NC(=O)C(C)(C)C)cc12
 : 104, 105
> COc1cc(NC(=O)CCNC(=O)Cn2ccc3ccccc3c2=O)cc(OC)c1OC
 : 109, 107
> COc1cc(OC)cc(-n2c(=O)[nH]c3cc(C(=O)NCCc4ccc(C)cc4)ccc3c2=O)c1
 : 111, 112
> CC(C)c1ccc(NS(=O)(=O)c2ccc3[nH]cc(C(=O)NCC4CCCO4)c(=O)c3c2)cc1 (stereo not given)
 : 113, 108
> COc1ccc(NC(=O)C2CCCN(S(=O)(=O)c3ccc(F)cc3)C2)cc1 (stereo not given)
 : 109, 104
> CCc1ccc(-n2c(N3CCN(c4cccc(Cl)c4)CC3)nc3ccccc3c2=O)cc1
 : 109, 112
> COC(=O)c1c(NC(=O)/C(C#N)=C/c2ccc(OC)cc2)sc2c1CCC2
 : 108, 106

# Carrying on:
Structure,Polio RdRp inh,Polio RdRp inh intensity
COc1ccc(-c2nnc(SCC(=O)N3CCCCC3)o2)cc1,109,111
COc1ccc(C)cc1NC(=O)Nc1nnc(N2CCCCC2)s1,104,109
COc1cc(NC(=O)CN2C(=O)CN(C)C(=O)c3ccccc32)cc(OC)c1OC,106,99
O=C(CN1C(=O)COc2ccc(S(=O)(=O)N3CCCCCC3)cc21)N1CCN(c2ccc(F)cc2)CC1,99,102
COc1ccc(NC(=O)CC(C)n2nc(C)cc2C)cc1Cl (stereo not given),104,109
COc1ccc(CNC(=O)c2ccc3c(c2)N(Cc2ccccc2C)C(=O)c2ccccc2S3=O)cc1 (stereo not given),109,107
CC1Cn2cc(C(=O)Nc3ccccc3C(F)(F)F)c(=O)c3c(Cl)ccc(c32)O1 (stereo not given),100,97
COc1cccc(NC(=O)CSc2cc(C)[nH]c(=O)n2)c1,108,111
CC(C)Sc1oc(-c2cccs2)nc1S(=O)(=O)c1ccc(Cl)cc1,110,114
CCCn1c2ccccc2c2cnn(CC(=O)NC(CCSC)C(=O)OC)c(=O)c21 (stereo not given),106,101
Cc1noc(C)c1S(=O)(=O)N1CCC(C(=O)N2CCN(c3cccc(C(F)(F)F)c3)CC2)CC1,114,118
Cc1nn(C(=O)COc2ccccc2Br)c(C)c1Sc1ccccc1,101,103
CCc1ccc(C(=O)c2cn(CC(=O)Nc3ccc4c(c3)OCCO4)c3ccc(C)cc3c2=O)cc1,102,105
CCN(Cc1ccccc1)C(=O)c1cc2c(=O)oc3ccc(C)cc3c2s1,106,110
CCOc1ccccc1NCc1nnc2n1CCCCC2,110,108
CN(CC(=O)Nc1cccc(C(F)(F)F)c1)S(=O)(=O)c1ccc2[nH]c3c(c2c1)CCCC3,110,117
COC(=O)c1ccc(NC(=O)C(c2ccccc2)N2Cc3ccccc3C2=O)cc1 (stereo not given),106,105
CCOc1ccc(NC(=O)N2CCN(S(=O)(=O)c3ccc4c(ccn4C)c3)CC2)cc1,106,115
O=C(NCCCO)c1nn(-c2ccc(Cl)cc2)nc1CO,101,107
Cc1ccc(CNC(=O)Nc2cn(CC(C)C)c(=O)c3ccccc23)cc1,28*,49*
CCOC(=O)c1c(NC(=O)c2nc(SC)ncc2Cl)sc(C)c1C,120,120
Cc1cccn2c(=O)c(C(=O)NCCc3ccccc3)cnc12,107,112
CCc1ccc(NC(=O)CC2C(=O)N(c3ccc(F)cc3)C(=O)N2Cc2ccc(F)cc2)cc1 (stereo not given),112,115
O=C(COc1ccc(Cl)cc1)OCc1cc(=O)n2nc(-c3cccs3)sc2n1,105,109
CC(=O)c1ccc(N2CCN(C(=O)Cn3ncc4c3-c3ccccc3OC4)CC2)cc1,103,108
COc1cccc(NC(=O)CSc2nc(=O)n(Cc3ccncc3)c3c2CCC3)c1,105,111
O=C(Cn1c(=O)n2nc(-c3cccc(F)c3)nc2c2ccccc21)NCc1ccc(Cl)cc1,107,113
CCOc1cccc(NC(=O)CSc2ncc(-c3ccccc3)[nH]2)c1,107,107
COc1ccc(NC(=O)c2ccc3oc(=O)c(S(=O)(=O)c4ccc(F)cc4)cc3c2)cc1OC,106,109
Cc1ccc(C)c(N2CCN(S(=O)(=O)c3cc(C(=O)Nc4cc(Cl)cc(Cl)c4)ccc3F)CC2)c1,107,111

# Next part, starting with the last 6 of the part before.
Structure,Polio RdRp inh,Polio RdRp inh intensity
CC(=O)c1ccc(N2CCN(C(=O)Cn3ncc4c3-c3ccccc3OC4)CC2)cc1,103,108
COc1cccc(NC(=O)CSc2nc(=O)n(Cc3ccncc3)c3c2CCC3)c1,105,111
O=C(Cn1c(=O)n2nc(-c3cccc(F)c3)nc2c2ccccc21)NCc1ccc(Cl)cc1,107,113
CCOc1cccc(NC(=O)CSc2ncc(-c3ccccc3)[nH]2)c1,107,107
COc1ccc(NC(=O)c2ccc3oc(=O)c(S(=O)(=O)c4ccc(F)cc4)cc3c2)cc1OC,106,109
Cc1ccc(C)c(N2CCN(S(=O)(=O)c3cc(C(=O)Nc4cc(Cl)cc(Cl)c4)ccc3F)CC2)c1,107,111
CCc1ccc(C(=O)c2cn(Cc3ccccc3)c3cc(OC)c(OC)cc3c2=O)cc1,103,103
COc1cccc(-c2ccc3c(N)c(C(=O)c4ccc(Br)cc4)sc3n2)c1,156,204
CCN(c1ccccc1)S(=O)(=O)c1nnc(NC(=O)COc2ccccc2F)s1,106,108
COc1ccc(NC(=O)Cn2nc(-c3ccncc3)ccc2=O)cc1Cl,110,111
Cc1ccc(C)c(NC(=O)Cn2c(=O)n(Cc3nc(C)no3)c(=O)c3cc4c(cc32)OCO4)c1,108,114
Cc1nn2c(=O)cc(COC(=O)c3ccc(NC(=O)c4ccc(C(C)(C)C)cc4)cc3)nc2s1,100,103
COC(=O)c1ccccc1NC(=O)C1=CC(c2ccc(C)cc2)=NS(=O)(=O)N1C,113,112
CCN(C(=O)c1cc2c(=O)oc3ccccc3c2s1)c1ccccc1F,108,108
CCN(CC)S(=O)(=O)c1ccc(C(=O)NCCSc2c(-c3ccc(C)cc3)[nH]c3ccccc23)cc1,107,110
Cc1ccc(OCCSc2nc3ccc(NC(=O)COc4ccc(C)cc4)cc3s2)cc1,104,106
COCCNc1ncnc2c1c(-c1ccccc1)cn2-c1cccc(Cl)c1,103,107
COc1ccc(CC(=O)N(Cc2nc(-c3ccc(C)cc3)no2)C(C)C)cc1,107,113
Cc1ccc(CCNC(=O)NCc2noc3ccc(C)cc23)cc1,94,93
CCOc1ccc(CCNC(=O)Cn2c(=O)c3cccn3c3ccc(F)cc32)cc1OCC,107,112
COc1ccccc1CNS(=O)(=O)c1ccc(-c2cc(C(F)(F)F)on2)s1,109,112
CCC(C(=O)NCCc1ccc(SC)cc1)n1nc(C)c2c(C)n(-c3ccc(C)cc3)nc2c1=O (stereo not given),110,113
COc1ccccc1C(=O)Nc1nnc(S(=O)(=O)N(C)c2ccc(Cl)cc2)s1,104,105
Cc1ccc(Cl)cc1NC(=O)COCc1cc(-c2ccco2)on1,104,104
Cc1cc(NC(=O)CSc2ncc(C(=O)Nc3ccc(C)c(C)c3)c(=O)n2C)no1,111,115
CC(=O)Nc1ccc(NC(=O)c2cc(CN3CCCC3)on2)cc1,106,108
CC1=C(c2ccc(C)c(C)c2)S(=O)(=O)N=C1N1CCC(C(=O)Nc2ccc(Cl)cc2)CC1,100,103

# For convenience, 6 of the compounds above:
Structure,Polio RdRp inh,Polio RdRp inh intensity
CCC(C(=O)NCCc1ccc(SC)cc1)n1nc(C)c2c(C)n(-c3ccc(C)cc3)nc2c1=O (stereo not given),110,113
COc1ccccc1C(=O)Nc1nnc(S(=O)(=O)N(C)c2ccc(Cl)cc2)s1,104,105
Cc1ccc(Cl)cc1NC(=O)COCc1cc(-c2ccco2)on1,104,104
Cc1cc(NC(=O)CSc2ncc(C(=O)Nc3ccc(C)c(C)c3)c(=O)n2C)no1,111,115
CC(=O)Nc1ccc(NC(=O)c2cc(CN3CCCC3)on2)cc1,106,108
CC1=C(c2ccc(C)c(C)c2)S(=O)(=O)N=C1N1CCC(C(=O)Nc2ccc(Cl)cc2)CC1,100,103

# Only part of the results is shown (hit frequency here may not be typical).
